HCMV NEC inh: inhibitors of HCMV UL50-UL53 interaction, biochemical, HTRF. HCMV UL50-UL53 nuclear egress complex (human cytomegalovirus). normalized percent inhibition. inhibition, % (no concentration beside the values). actives 0.15% (n = 190,000). AID 1918969, 2023;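 active means both replicates at 50% or more, plus weaker picks with an unusually low signal ratio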;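 further: stock transfer was 100 nL into about 20 µL; 0% = negative control wells and 100% = wells with untagged competitor protein; inactives centre near -12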
GIV-Gai inh: inhibitors of GIV peptide binding to Galpha-i3, primary screen, biochemical, fluorescence polarization, FITC-GIV GBA peptide, rat Galphai3; percent of control (FP), % (no concentration beside the values); 90 min; active compounds read low; scaled: aluminum fluoride 0%, vehicle 100%; actives 0.42% (n = 210,000);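 active means replicate mean at 85% of control or lower, very high polarization wells dropped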;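 further: wells of about 15 µL received 100 nL stock; the first replicate is given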
Target sequence (P08753 whole entry, looked up): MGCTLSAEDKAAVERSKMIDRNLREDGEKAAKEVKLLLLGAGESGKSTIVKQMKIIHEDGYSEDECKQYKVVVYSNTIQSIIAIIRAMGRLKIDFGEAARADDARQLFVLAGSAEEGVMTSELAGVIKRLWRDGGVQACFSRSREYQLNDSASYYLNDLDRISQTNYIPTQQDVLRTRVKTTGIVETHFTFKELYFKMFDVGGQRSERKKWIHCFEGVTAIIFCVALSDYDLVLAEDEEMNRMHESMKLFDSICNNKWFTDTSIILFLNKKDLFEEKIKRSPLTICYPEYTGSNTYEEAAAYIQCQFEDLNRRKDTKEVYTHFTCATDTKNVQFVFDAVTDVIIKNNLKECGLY
Sa growth 42C: S. aureus growth inhibition at 42 and 30 °C, primary screen, LtaS inhibitor project, RN4220, two temperatures; actives 0.53% (n = 170,000); relative growth, % (concentration not given with the values); AID 720641, 2013; OD600, 20 h, 42 °C; active compounds read low;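 active means growth at 42 °C up to 50% and 20 or more points under that at 30 °C, or under 10% at both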;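 further: 300 nL library stock went into each well; scaled to the means of positive and negative controls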
Sa growth 42C second temp: also measured in Sa growth 42C; calls as there; relative growth, %; measured here: growth at 30 °C;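 optical density after 20 h as mean of two plates; 100% = untreated growth and lower means inhibition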
Active calls of the source: *; nt = no result given; & = joins results of further samples.

Structure | HCMV NEC inh | GIV-Gai inh | Sa growth 42C | Sa growth 42C second temp
CCOC(=O)c1c(NC(=O)c2nn3c(c2Br)NC(c2ccco2)CC3C(F)(F)F)sc2c1CCCC2 (stereo not given) | -26 | 93 | nt | nt
Cc1cccc(NC(=O)Cn2cc(C(=O)C3CCCCC3)c3ccccc32)c1 | 3 | 106 | 100 | 102
N#CC1=C(N)Oc2n[nH]c(-c3ccccc3)c2C1c1ccc(OC(=O)c2ccco2)cc1 (stereo not given) | 2 | 101 | nt | nt
COc1ccccc1NC(=O)c1ccc(NC(=O)COC(=O)C2CCCO2)cc1 (stereo not given) | -3 | nt | 93 | 94
CN(C)c1ccc(/C=N/c2nc3ccccc3n2Cc2ccc(Cl)cc2)cc1 | nt | 192 | 100 | 83
O=C(NCc1ccccn1)c1ccc2c(=O)n3c(nc2c1)CCCCC3 | 5 | 103 | 111 | 90
N#Cc1ccccc1NC(=O)CSc1ncn[nH]1 | 34 | 107 | 94 | 97
Cc1ccccc1CNCCSc1nnnn1C | -26 | 105 | 102 | 89
CN(C)c1cc(-c2ccc(Cl)cc2)oc(=O)c1Cl | -72 | 106 | 104 | 90
C/C(N)=C(/C#N)C(=O)CSc1nnc(SCC(=O)/C(C#N)=C(\C)N)s1 | -6 | nt | 82 | 99
COc1ccc(-c2noc(-c3ccc(NCCc4ccccc4)c([N+](=O)[O-])c3)n2)cc1OC | -12 | 101 | 99 | 85
N#CCn1c(COC(=O)CCc2ccc(S(=O)(=O)N3CCOCC3)cc2)nc2ccccc2c1=O | -16 | nt | 72 | 95
Cc1noc2c1C(c1cccc(Cl)c1)C1=C(CC(c3ccccc3O)CC1=O)N2 (stereo not given) | -2 | 104 | nt | nt
Cc1ccc(Nc2ncc(C(=O)NCCCN3CCN(C)CC3)c3ccccc23)cc1Cl | -33 | 95 | 106 | 83
O=C(/C=C/c1ccc(Cl)cc1)NCc1ccccn1 | -37 | 98 | 123 | 92
CCCCNC(=O)c1ccc2c(c1)NC(=O)C(CC(C)C)N2 (stereo not given) | -9 | 108 | 93 | 101
CCc1ccc(N(CC)C(=O)c2ccc3c(=O)n4c(nc3c2)CCCCC4)cc1 | 3 | 101 | 101 | 89
CCOc1ccccc1CNC(=O)c1ccc(Cn2c(SCc3ccccc3)nc3cccnc32)cc1 | -7 | 98 | 108 | 85
Cc1ccc(-c2csc(-c3c(N)c(C(=O)c4ccc5c(c4)OCO5)n4ccccc34)n2)cc1 | -3 | 106 | 112 | 91
COc1ccc(NC(=O)CCc2c(C)nc3c(-c4ccccc4)c(C)nn3c2C)cc1Cl | -18 | 105 | 112 | 84
CC1CC(=O)Nc2ccccc2N1S(=O)(=O)c1ccc(C#N)cc1 (stereo not given) | 10 | 97 | 108 | 100
CC(=O)OC(Cn1cccn1)c1ccccc1 (stereo not given) | -1 | 107 | 83 | 94
Cc1ccc(CN2CCC(CNC(=O)Nc3ccccc3F)C2)cc1 (stereo not given) | -6 | 103 | 110 | 83
CCOc1cccc(C(=O)Nc2ccc(S(=O)(=O)N(Cc3ccccc3)c3ccccc3)cc2)c1 | -5 | 96 | 107 | 89
Cc1cc(=O)[nH]c(SCc2cc(=O)n3nc(SC(C)C)sc3n2)n1 | 12 | 98 | nt | nt
O=C(CC1OC(=O)c2ccccc21)OCC(=O)c1ccc(F)cc1 (stereo not given) | -12 | nt | 107 | 91
CCN(CC)CCCOc1c(C)cc(Cl)cc1Cl | -9 | 99 | 111 | 106
NC1=CC(=O)c2ccccc2C1=O | -239 | 101 | 0.6* | -0.1*
Cc1cccc(-c2nccc(Nc3ccc(C(=O)NCCC(C)C)cc3)n2)c1 | -6 | 108 | nt | nt
COc1cnc(-c2ccccc2)[nH]c1=O | -4 | 101 | nt | nt
COc1cccc(N2CCN(C(c3ccc(Br)cc3)c3nnc(-c4ccccc4)o3)CC2)c1 (stereo not given) | -5 | 95 | nt | nt
CC(NCc1ccccc1)c1ccccc1O (stereo not given) | -1 | 105 | 106 | 97
COc1ccc(C)cc1S(=O)(=O)NCCc1csc(-c2ccc(Cl)cc2)n1 | 2 | 105 | nt | nt
COc1ccccc1N1C(=O)CC(SCC(=O)Nc2ccccc2)C1=O (stereo not given) | -19 | 104 | 89 | 77
CN(C)/C=N/N=C/c1cc(Cl)cc(Cl)c1O | -40 | 107 | 93 | 94
O=C(O)CC(Sc1nc2sc3c(c2c(=O)[nH]1)CCCC3)C(=O)O (stereo not given) | nt | 75* | 94 | 83
COc1cccc(CNC(=O)CSC2=Nc3ccccc3C3=NC(C(C)C)C(=O)N23)c1 (stereo not given) | nt | 102 | 84 | 84
O=C(CCc1c[nH]c2ccccc12)N(Cc1ccco1)Cc1cccs1 | -34 | nt | 102 | 85
CCCOC(=O)C(C)n1nnc2sc(-c3ccccc3)cc2c1=O (stereo not given) | -28 | 117 | 115 | 89
CN(Cn1nc(Nc2ccccc2F)sc1=S)C1CCCCC1 | -42 | nt | 75 | 54
O=C(O)CSCC(=O)N1CCN(c2cc(C(F)(F)F)nc3ccccc23)CC1 | -48 | 91 | 78 | 86
CN(C(=O)C1CCC(CNS(=O)(=O)c2cccc3cccnc23)CC1)C1CCCCC1 (stereo not given) | nt | 102 | 99 | 83
CC(C)(C)C(=O)OCc1nc(-c2ccc(F)cc2)cs1 | -13 | 100 | 95 | 87
CCOc1ccc2nc(N3CCCC(C(=O)NCCc4ccc(Cl)cc4)C3)sc2c1 (stereo not given) | -26 | 104 | 110 | 88
C/C(=N\O)c1oc(C)nc1C | -4 | 98 | 101 | 96
O=C(CCC(=O)c1ccc(F)cc1)Nc1cccnc1 | -22 | 102 | 98 | 86
Cc1ccc(-n2cnc3cc(NCc4ccncc4)ccc32)cc1 | -14 | 104 | 95 | 71
CC(C)=C1C(=O)Nc2ccc(S(=O)(=O)N(C)C3CCCCC3)cc21 | -28 | 105 | 110 | 95
CCn1c(COc2cccc(C)c2)nnc1SCC(=O)NC(C)(C)C | 18 | 104 | 84 | 104
Nc1nnnn1/N=C\C=C\c1ccccc1 | nt | 99 | 92 | 74

Continued:
Structure | HCMV NEC inh | GIV-Gai inh | Sa growth 42C | Sa growth 42C second temp
Cc1cc(C)cc(OCC(=O)N(Cc2ccc(Cl)cc2)CC2CCCO2)c1 (stereo not given) | -30 | 99 | 102 | 77
CCCSc1nnc2c(n1)OC(c1ccc(F)cc1)Nc1ccccc1-2 (stereo not given) | -10 | 66* | nt | nt
COc1ccc(N2CCN(S(=O)(=O)CCNC(=O)Cc3ccc(-c4ccccc4)cc3)CC2)cc1 | nt | 109 | 99 | 93
CCc1ccc(-n2nc(CO)c(C(=O)NCc3ccccn3)n2)cc1 | 2 | 105 | 103 | 90
Cn1c(CCNC(=O)C2CC2)nc2cc(NC(=O)C3CCCCC3)ccc21 | -32 | 104 | nt | nt
CCOC(=O)N1CCC(Nc2nn3nnnc3c3ccccc23)CC1 | -2 | 112 | 89 | 100
Cc1cccc(OCCOCCn2c(-c3ccc(Cl)cc3)nc3ccccc3c2=O)c1C | -17 | 107 | 103 | 89
c1ccn2cc(C34CC5CC(CC(C5)C3)C4)nc2c1 | -28 | 101 | 99 | 81
COCc1nc2ccccc2n1CCOc1cccc(C)c1 | -12&-4 | 102&100 | 99 | 89
Cc1ccsc1CCNS(=O)(=O)c1ccc2[nH]c(=O)ccc2c1 | 8 | 108 | 91 | 91
CCOC(=O)c1ccc(NC(=O)CN2C(=O)CC(c3ccc(C)c(C)c3)=Nc3ccccc32)cc1 | nt | 99 | 97 | 97
CC(C)Nc1ncnc2scc(-c3ccccc3)c12 | -14 | 104 | 111 | 84
CCC(Nc1ccc(-c2nc(-c3ccco3)no2)cc1[N+](=O)[O-])c1ccccc1 (stereo not given) | -19 | 103 | 92 | 88
COc1ccc(C2NC(=O)CS2)cc1 (stereo not given) | -4 | 104 | 101 | 83
COc1ccccc1CNS(=O)(=O)c1cccs1 | nt | 112 | 99 | 81
CCN1C2=C(C(=O)CC(C)(C)C2)C(c2ccc(OC)cc2)C2=C1CC(C)(C)CC2=O | nt | 101 | 130 | 89
Cn1c(=O)c2c(nc3n(-c4ccccc4)c(-c4cccs4)cn23)n(C)c1=O | 1 | 102 | 112 | 88
O=C(NCCc1ccccc1)c1ccc2nc3sc4c(c3c(=O)n2c1)CCCC4 | -39 | 109 | nt | nt
CCOc1ccc(NC(=O)Cn2cc(C(=O)c3ccc(OC)cc3)c(=O)c3cc4c(cc32)OCO4)cc1 | -26 | 103 | 100 | 90
O=C(N1CCCCCC1)N1CCN(C(=O)N2CCCCCC2)CC1 | -34 | 107 | 99 | 97
Cc1cc(C)nc(SCC(=O)N2c3ccccc3CCc3ccccc32)n1 | -12 | 94 | nt | nt
O=C(CSCc1ccc(Cl)cc1)c1cc2ccccc2o1 | -37 | nt | 87 | 84
N#Cc1c(-c2ccco2)c2c([nH]c1=S)CCCC2=O | -93 | nt | 81 | 39
CCc1nc(-c2ccc(C)c(S(=O)(=O)N3CCN(c4ccc(C(C)=O)cc4)CC3)c2)no1 | nt | 103 | 99 | 103
NC(=O)c1ccc(Nc2nc(=S)[nH]c3ccccc23)cc1 | nt | 100 | 110 | 84
CCOC(=O)c1sc(NC(=O)C2C3C=CC(C3)C2C(=O)O)nc1C (stereo not given) | 0 | 101 | 126 | 94
OCC(O)Cn1c(COc2ccccc2)nc2ccccc21 (stereo not given) | -15 | 102 | 85 | 84
COc1ccc(NC(=O)c2cc3c(-c4ccccc4F)nn(C)c3s2)c(OC)c1 | -32 | 101 | 107 | 83
FC(F)(F)c1ccc2cc(CSc3ccc(Cl)cc3)ccc2n1 | 0 | 108 | 87 | 93
CCCc1cc(N2CCCCC2)n2c(nc3ccccc32)c1C#N | -27 | 101 | 91 | 84
Cc1c2cnn(CC(=O)NCCc3ccccc3)c(=O)c2c(C)n1Cc1ccccc1 | 3 | 101 | 111 | 92
Cc1nc(=S)[nH]c(C)c1CCC(=O)O | -31 | nt | 88 | 84
COc1cccc(NC(=O)Nc2ccc(Nc3cc(N(C)C)nc(C)n3)cc2)c1 | -32 | 97 | nt | nt
O=C(O)CN1C(=O)/C(=C\c2ccc(-c3ccc([N+](=O)[O-])cc3Cl)o2)SC1=S | -12 | 104 | nt | nt
CSc1nc2ccccc2n1CC(=O)c1cc(C)n(C)c1C | -16 | nt | 98 | 88
COc1cc2[nH]c(=O)n(CCCC(=O)N3CCN(c4cc(Cl)ccc4C)CC3)c(=O)c2cc1OC | -1 | 105 | 104 | 93
COc1cccc(NC(=O)c2sc3nc(C)c(C(=O)Nc4ccc(C)cc4C)c(-c4ccco4)c3c2N)c1 | 14 | 113 | 105 | 95
COc1ccc(-c2nc3c4c5c(sc4ncn3n2)CCCCC5)cc1OC | -21 | 97 | nt | nt
Clc1ccc(CNc2cc(-c3ccccc3)nc3nncn23)cc1 | 8 | 110 | 90 | 79
COCc1cn2ccccc2n1 | -16 | nt | 94 | 92
Cc1ccc(S(=O)(=O)NCCc2nnc(SCc3ccccc3)n2C)cc1 | 11 | 101 | 110 | 99
O=C(c1cc2ccccc2s1)N1CCCN(c2ccc(C(F)(F)F)cn2)CC1 | -1 | 107 | 108 | 100
COCCN(Cc1ccco1)C(=O)Cn1ncc2c([nH]c3ccccc32)c1=O | nt | 100 | 96 | 89
COc1cc(C2C(C(=O)OCc3ccccc3)=C(C)NC3=C2C(=O)CC(c2ccccc2)C3)ccc1O (stereo not given) | -32 | 100 | nt | nt
CCn1c(C)ccc(-c2noc(CCC(=O)Nc3ccc(C)cc3)n2)c1=O | -22 | 106 | nt | nt
O=C(CN1C(=O)CCn2nc(-c3cccc(Cl)c3)cc21)N1CCN(c2ccccn2)CC1 | -8 | 108 | nt | nt
CC(=O)N1c2ccc(S(=O)(=O)NCC3CCC(C(=O)Nc4ccc(F)cc4)CC3)cc2CC1C (stereo not given) | nt | 113 | 110 | 81
CCOC(=O)N1CCN(C(=O)C(C)C)CC1 | -6 | 95 | 105 | 86
COc1ccc(N2C(=O)NC(=O)/C(=C/c3cc(Br)c(O)c([N+](=O)[O-])c3)C2=O)cc1 | -53 | 101 | nt | nt
COc1cccc(NC(=O)CC(C)NCc2nc3ccccc3[nH]2)c1 (stereo not given) | 0 | nt | 96 | 94

The list goes on.
Structure | HCMV NEC inh | GIV-Gai inh | Sa growth 42C | Sa growth 42C second temp
CCN(C(=O)c1ccco1)c1nc(-c2ccccc2)cs1 | -4 | 102 | 42 | 39
CSc1ncc(C#N)c2nc(-c3ccc(Cl)cc3)nn12 | nt | 103 | 104 | 84
O=C(CSc1nnc(C2CCCCC2)o1)NN1C(=O)NC2(CCCCC2)C1=O | -29 | nt | 79 | 88
CCc1ccc(-c2ccc(=O)[nH]n2)cc1S(=O)(=O)Nc1ccc(C(=O)O)cc1 | -77 | 105 | nt | nt
C=CCn1c(-c2ccc(Cl)cc2)cnc1SCc1c(C)noc1C | -3 | nt | 97 | 93
Cc1ccccc1-c1nc(CN2CCC(C(=O)NCc3ccccc3)CC2)c(C)o1 | 2 | 104 | 80 | 101

Reprinted from the entries so far for reference:
Structure | HCMV NEC inh | GIV-Gai inh | Sa growth 42C | Sa growth 42C second temp
COc1cccc(NC(=O)CC(C)NCc2nc3ccccc3[nH]2)c1 (stereo not given) | 0 | nt | 96 | 94
CCN(C(=O)c1ccco1)c1nc(-c2ccccc2)cs1 | -4 | 102 | 42 | 39
CSc1ncc(C#N)c2nc(-c3ccc(Cl)cc3)nn12 | nt | 103 | 104 | 84
O=C(CSc1nnc(C2CCCCC2)o1)NN1C(=O)NC2(CCCCC2)C1=O | -29 | nt | 79 | 88
